# Bioassay records as filed in PubChem.
# GLA inh pH 4.5: alpha-galactosidase A (human) inhibition, pH 4.5 | activity change, negative = inhibition, % at 105 µM | purified enzyme, 4-MU-alpha-Gal fluorescence, pH 4.5 | 230,000 tested, under 10 active | AID 1467 | P06280; inconclusive = small, poorly fitted or top-dose-only inhibition, or a rising curve; inactive = flat fitted curve, though single readings scatter; no compound was filed as active;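 also: 0% = full activity with enzyme and -100% = basal without enzyme; dose as in the result columns while the protocol names 77 µM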
# Target sequence (P06280 whole entry, looked up): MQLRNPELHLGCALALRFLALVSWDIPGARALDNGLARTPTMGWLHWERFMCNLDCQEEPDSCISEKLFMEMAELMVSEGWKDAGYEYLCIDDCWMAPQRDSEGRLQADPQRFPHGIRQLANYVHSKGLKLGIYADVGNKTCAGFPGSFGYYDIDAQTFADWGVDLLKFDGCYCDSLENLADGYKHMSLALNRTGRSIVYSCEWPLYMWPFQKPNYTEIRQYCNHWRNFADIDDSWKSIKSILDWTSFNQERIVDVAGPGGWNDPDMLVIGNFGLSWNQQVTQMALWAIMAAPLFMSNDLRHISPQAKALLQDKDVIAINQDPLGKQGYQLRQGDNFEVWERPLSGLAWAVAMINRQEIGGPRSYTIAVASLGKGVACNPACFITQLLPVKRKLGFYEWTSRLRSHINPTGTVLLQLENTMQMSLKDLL
# Rango-impB inh: Rango-importin beta binding inhibition; Potency, µM (titrated, usually from 92.2 µM), inactives show at the top dose inhibition of complex formation; Rango CFP/YFP FRET sensor + importin beta, 45 min; Q14974; hit rate 0.031% among 340,000; active = rising FRET ratio curve, often small or poorly fitted; inconclusive = mostly compound fluorescence or quenching in the first reads; inactive = flat curves in all reads;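 also: potency is read from the fitted curve at half-maximal effect; 0% = DMSO wells and 100% = buffer wells lacking importin beta; nearly all actives have a fitted effect of over 15% in size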
#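 Inhibition scored from the CFP 486 nm/YFP 530 nm FRET ratio 45 min after adding 0.125 microM importin beta to 50 nM Rango biosensor preincubated 5 min with compound (room temperature, PBS with DTT, Tween-20, BSA). No-importin wells as positive control.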
# Rango release inh: prevents RanGTP from dissociating the Rango-importin beta complex | Biochemical FRET Rango-importin beta, RanGTP-induced dissociation | hit rate 0.071% among 340,000 | AID 540253 | O95149+P62826 | Potency, µM (titrated, usually from 46.1 µM), inactives show at the highest dose activity change, negative = inhibition; active means falling FRET ratio curve, often poorly fitted, with flat reads before Ran was added; inconclusive means other falling curves, or compound fluorescence or quenching; inactive means flat or rising ratio curve;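 also: potency is read from the fitted curve at half-maximal effect; % of control where 0% means no effect; nearly all actives have a fitted effect of over 45% in size; -100% = wells without RanGTP and RCC1; the record marks most hits as doubtful in a second field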
#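 Recombinant Rango FRET biosensor (EYFP–snurportin 1 IBB–cerulean CFP10) at 0.1 uM premixed with 0.25 uM importin beta in PBS, 1 mM DTT, 0.02% Tween-20, 0.1% BSA. Compound added 5 min; RanGTP-RCC1 (0.6 uM Ran, 2 mM GTP, 0.2 uM RCC1) then triggers release, read at 45 min.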
# miR-21 FLuc: miR-21 reporter, rising signal; HeLa miR-21 FLuc reporter, luciferase, 48 h; Potency, µM (top dose mostly 38.3 µM), inactives show at the top dose reporter change, positive = more light; AID 2288; 340,000 tested, under 10 active; active = well fitted rising curve with a large enough effect; inconclusive = small, poorly fitted or top-dose-only effect; inactive = no such curve, though single readings can be large or run the other way;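 also: % of control where 0% means no effect; miR-21 action dims this reporter so a rising signal means less miR-21 action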
#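 HeLa miR-21-FLuc reporter line, endogenous miR-21; 2000 cells/well in DMEM/10% FBS; compound titration up to ~40uM final, 48 h, 37 degree Celsius; luciferase detection reagent, 15 min lysis, CCD luminescence.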
# * = called active by the depositor; ? = inconclusive; . = no result given; & = joins results of further samples; [ ] = dose if it differs, or a comment. An excerpt. The share of hits here may be higher or lower than overall.
SMILES,GLA inh pH 4.5,Rango-impB inh,Rango release inh,miR-21 FLuc
C#CCOCCOCCOCCNc1nc(N2CCN(C(=O)[C@H]([C@@H](C)CC)n3cc(CCCN=C(N)N)nn3)CC2)nc(N2CCN(C(=O)[C@H](CCCCN)n3cc(CCC(=O)O)nn3)CC2)n1,-4,-1.2%,4%,-4%
O=C(O)c1ccc(NC(CSCc2ccc(F)cc2)C(=O)O)c([N+](=O)[O-])c1 (stereo not drawn),1,3.2%,-9%,-1%
CCCCN(C)C(=O)C1CCN(c2ccc(S(=O)(=O)N3CCOCC3)cc2[N+](=O)[O-])CC1,.,0.7%,12%,.
CCOC(=O)CNC(=O)c1sc2nc(C)cc(C)c2c1N,9,-3.1%,-10%,-42%
Fc1ccc(CNCc2ccc(Br)cc2)cc1,8,7.3%,-7%,-8%
COc1ccc(C(=O)C2CCN(CC(=O)Nc3cc(C)cc(C)c3)CC2)cc1,.,-0.7%,-3%,-4%
N#Cc1ccccc1NCC(=O)N1CCN(S(=O)(=O)c2ccccc2)CC1,.,-0.3%,34%,.
CC/C(C)=N/NC(=S)NCc1ccco1,-3,3.5%,3%,-6%
CCc1c(C)nc2cc(-c3ccc(OC)c(OC)c3)nn2c1N1CCCC1,0,2.1%,17%,3%
CCc1ccc(NC(=O)CSc2nc(N)c(NC(=O)c3ccc(F)c(F)c3)c(=O)[nH]2)cc1,.,1.2%,6%,0%
OC(C#Cc1ccccc1)(c1ccccc1)c1ccccc1,.,1.3%,0%,.
COc1ccc(S(=O)(=O)N(C)CC(=O)NCCN2CCOCC2)cc1C,.,-1.9%,-8%,-4%
O=C(CCn1c(=O)c2ccccc2n(Cc2cc(=O)n3ccccc3n2)c1=O)NCc1ccco1,1,-0.3%,10%,-6%
Cc1nn(C(C)C(=O)NCc2ccco2)c(=O)c2nn(-c3ccccc3)c(C)c12 (stereo not drawn),.,-0.1%,3%,-1%&2%
CC(=O)Nc1ccc(S(=O)(=O)n2cnc3cc(C)c(C)cc32)cc1,-5,-3.5%,?,0%
O=C(CN1CCCCCC1)Nc1ccc(S(=O)(=O)N2CCCCC2)cc1,.,0.3%,10%,-2%
CC(C)NCC(O)COC1CCC(C(C)(C)C)CC1 (stereo not drawn),-4,2.7%,19%,-4%
O=C(NCc1ccc2c(c1)OCO2)c1c(O)c2cccc3c2n(c1=O)CCC3,5,-5.7%,13%,-1%
Cc1cccc(C(=O)NCCCN(C)CCCNC(=O)c2cccc(C)c2)c1,.,-2.4%,6%,0%
CCCCCCCCCCOC(=O)NC1CCS(=O)(=O)C1 (stereo not drawn),2[21.1 µM],-5.0%,3%,2%
CCOc1ccc(NC(=O)CC2C(=O)N(CC)C(=S)N2CCN2CCOCC2)cc1 (stereo not drawn),-5,-0.2%,6%,0%
Cc1onc(-c2ccccc2)c1C(=O)N1CCCN2C(=O)c3ccccc3C21 (stereo not drawn),5,3.5%,-19%,4%
Cc1nn(-c2ccccc2)c(C)c1NC(=O)Cc1cccs1,3,?,?,-16%
CC(=O)Nc1ccc(S(=O)(=O)N2CCN(c3cc(C)ccc3C)CC2)cc1,5,-4.7%,6%,-2%

# An excerpt of these results, as tab-separated lines.
SMILES	GLA inh pH 4.5	Rango-impB inh	Rango release inh	miR-21 FLuc
CCOc1ccc(NC(=O)CC2C(=O)N(CC)C(=S)N2CCN2CCOCC2)cc1 (stereo not drawn)	-5	-0.2%	6%	0%
O=C(CCn1c(=O)c2ccccc2n(Cc2cc(=O)n3ccccc3n2)c1=O)NCc1ccco1	1	-0.3%	10%	-6%
Cc1cccc(C(=O)NCCCN(C)CCCNC(=O)c2cccc(C)c2)c1	.	-2.4%	6%	0%
Cc1nn(C(C)C(=O)NCc2ccco2)c(=O)c2nn(-c3ccccc3)c(C)c12 (stereo not drawn)	.	-0.1%	3%	-1%&2%
O=C(CN1CCCCCC1)Nc1ccc(S(=O)(=O)N2CCCCC2)cc1	.	0.3%	10%	-2%
Cc1nn(-c2ccccc2)c(C)c1NC(=O)Cc1cccs1	3	?	?	-16%

# Next structures:
SMILES,GLA inh pH 4.5,Rango-impB inh,Rango release inh,miR-21 FLuc
O=C(Nc1ccc(N2CCOCC2)c(Cl)c1)c1ccco1,4,-0.2%,19%,-34%
C[C@@H]1CC[C@]2(O[C@H](CCO)C[C@H](O)[C@H]2O)O1,.,3.4%,2%,.
O=C(CSCC(=O)Nc1cccc2ccccc12)Nc1cccc2ccccc12,-1,0.6%,2%,1%
CC(=O)N1CC2(C)CN(C(C)=O)CC(C)(C1)C2,.,-1.2%,-1%,-1%
O=C(COC(=O)Cc1ccc(F)cc1)Nc1cc(S(=O)(=O)N2CCOCC2)ccc1N1CCCC1,-9,-3.0%,20%,-6%
CN1CCC(N(C)C(=O)c2ccc(Cl)c(S(=O)(=O)N(C)c3ccc(Cl)cc3)c2)CC1,.,6.6%,1%,.
c1ccc(-n2ncc3c(NCCCN4CCOCC4)ncnc32)cc1,7,1.8%,1%,-36%
CCc1ccc(NC(=O)CCCn2nc(CC)n3c(cc4occc43)c2=O)cc1,.,-0.1%,31%,-16%
COc1ccc(C(=O)Nc2ccc3oc(Cc4ccc(Cl)cc4)nc3c2)cc1OC,-21,2.4%,10%,28%
N#Cc1nc(COc2ccc(-c3ccccc3)cc2)oc1NCCCN1CCOCC1,-5,1.6%,-1%,2%
CCCCn1nnc(NC(=O)C(c2ccccc2)c2ccccc2)n1,4,6.4%,-20%,3%
OC(c1ccccc1)c1nc2ccccc2[nH]1 (stereo not drawn),.,0.9%,0%,-3%
CCCN(Cc1ccccc1)C(=S)Nc1ccc(OCC)cc1,-4,11%,21%,-27%
O=C(c1ccccc1)N1CCCC(C(=O)N2CCN(c3ccccc3)CC2)C1 (stereo not drawn),-4,-3.0%,-1%,3%
COc1ccc(C2C(C#N)=C(N)OC3=C2C(=O)CC(C)(C)C3)c([N+](=O)[O-])c1OC (stereo not drawn),4,?,23µM*,-7%
O=c1cc(CSc2nnnn2-c2ccccc2)nc2sccn12,5,2.8%,0%,1%
O=C(Nc1ccccc1)OCCNC1CCCCC1,.,-3.3%,1%,.
O=C(c1ccccc1)N1CCCC(c2ccc(Cl)cc2)=N1,-2,-1.0%,-13%,4%
O=C(NCCCc1ccccc1)c1ccc(CS(=O)Cc2ccc(Cl)cc2)o1 (stereo not drawn),.,-4.0%,0%,10%
Cc1nnsc1C(=O)Nc1ccccc1Cl,3,-0.3%,1%,-7%
Cn1cc(S(=O)(=O)N2CCCC2)cc1C(=O)NCCc1ccccc1,.,-1.6%,18%,-8%
c1ccc(-c2csc(-n3cnnn3)n2)cc1,-3,-2.1%,-10%,-6%
O=C(O)Cc1cc(C(=O)Nc2ccc(Br)cc2)sc1-c1ccccc1,-2,.,.,1%
CC(C)Cn1c(N)c(C(=O)CCl)c(=O)n(C)c1=O,3,?,?,-1%
CSc1nnc(C)c(=O)n1COC(=O)COc1ccc(F)cc1,10,-1.6%,10%,3%
O=C(c1ccc(-c2ccc(Cl)cc2)o1)N1CCN(c2ccc([N+](=O)[O-])cc2Cl)CC1,0,?,?,-5%
COc1cc(/C=C2/C(=O)N(c3cccc(Br)c3)N=C2C)cc(OC)c1O,.,11%,-9%,3%
COc1ccc(CN(CC(=O)NCCc2ccccc2)C(=O)CCC(=O)Nc2cc(C)ccn2)cc1,.,0.1%,-6%,1%
Cc1ccc(N(C(=O)c2ccc(CN3CCOCC3)o2)C(C(=O)NCCC(C)C)c2cccs2)c(C)c1 (stereo not drawn),4,4.5%,5%,-6%
Cc1cc(/C=C2\SC(=O)NC2=O)c(C)n1-c1ccc(N2CCOCC2)cc1,-13,-1.4%,-9%,-19%
Cc1cc(O)c(C(C)C)cc1N=Cc1ccccc1[N+](=O)[O-],.,-0.5%,-8%,.
Cc1ccc(OCCN2CCN(C)CC2)c([N+](=O)[O-])c1,-8,0.9%,2%,-6%
CCOc1ccccc1Nc1ccc(C(=O)O)cc1NC(C)=O,-23,-0.8%,1%,-2%
O=C(O)COc1ccc2oc3ccccc3c2c1,8,4.0%,-5%,-1%
CCOC(=O)CSc1nc(C)c2cccc(C)c2n1,-7,?,-11%,7%
CCOC(=O)C1=C(CN2CCSCC2)NC(=O)NC1c1ccc2c(c1)OCO2 (stereo not drawn),2,-0.1%,0%,-3%
COc1ccc(C(=O)OCCCc2cc3ccccc3c(=O)o2)cc1,.,-4.5%,0%,.
CC(=O)Nc1ccc(NC(=O)C(C)OC(=O)c2ccccc2Sc2ccccc2C#N)cc1 (stereo not drawn),0,1.1%,48%,-18%
O=C(Cc1cccc(NC(=O)C2CCN(C(=O)C3CCCC3)CC2)c1)Nc1cccc(C(=O)N2CCOCC2)c1,.,-0.3%,-11%,.
O=[N+]([O-])c1ccc(-c2c[nH]c(=S)[nH]2)cc1,-11,2.3%,6%,-6%
CNC(=S)NNC(=O)c1cccn(Cc2ccc(Cl)c(Cl)c2)c1=O,4,-3.6%,-4%,-11%
O=C(NC(NC(=O)c1ccccc1)C(=O)c1ccccc1)c1ccccc1,-8,-0.4%,5%,1%
CCOC(=O)c1ccccc1NC(=O)c1cn(-c2ccc(OC)cc2)c(=O)c2ccccc12,-10,-0.8%,2%,-1%
CC1(C)Cc2c(ccc3ccccc23)-c2nnc(-c3cccnc3)n21,-13,-3.1%,3%,-10%
COc1ccccc1/C=N/NC(=O)CC(=O)NCCc1ccccc1,.,0.8%,1%,.
COc1ccc(Br)cc1CNC(=O)CCN1C(=O)COc2ccccc21,3,-0.2%,6%,1%
CS(=O)(=O)N1CCCC(C(=O)N2CCc3ccccc3C2)C1 (stereo not drawn),3,2.3%,-7%,-3%
Cc1ccc(N(Cc2ccccc2)C(=O)c2ccc(F)c(S(=O)(=O)N3CCOCC3)c2)cc1,.,-0.9%,-7%,.
C=CCNc1nc2ccccc2nc1NS(=O)(=O)c1ccc(Br)cc1,.,-2.7%,-8%,9%
COc1cccc(NC(=O)N2C3CCCC2CC(NC(=O)C2CC2)C3)c1 (stereo not drawn),.,-0.3%,16%,3%
COc1ccc(S(=O)(=O)NC2CC3CCC2C3)cc1 (stereo not drawn),.,0.5%,-2%,-5%
CSc1cccc(-n2c(C)cc(C(N)=O)c2C)c1,4,1.8%,-4%,-16%
COc1ccc(-c2csc(N3N=C(C)C(C)C3=O)n2)cc1 (stereo not drawn),2,-4.1%,-7%,-19%
N#CC(c1ccc(F)cc1)c1ccc(C(=O)c2ccc(F)cc2)cc1 (stereo not drawn),2,0.0%,-17%,13%
CC(C)=CCOc1c2ccoc2c(OCC=C(C)C)c2oc(=O)ccc12,.,0.5%,13%,.
O=C(NCc1ccco1)C1CC(c2ccccc2O)=NO1 (stereo not drawn),-5,?,2%,-3%
Cc1ccc2c(c1)c(N=Nc1ccc([N+](=O)[O-])cc1)c(O)n2C,.,5.0%,1%,-1%
COC(=O)c1cc2c(=O)n3ccccc3nc2n(Cc2cccnc2)c1=N,.,?,?,.
CCC(CC)C(=O)Nc1ccncc1,-11,.,.,0%
COc1ccc([C@H]2CC(=O)C=C(c3ccc4c(c3)sc3ccccc34)C2)cc1,.,0.4%,18%,.
# New compounds follow
SMILES,GLA inh pH 4.5,Rango-impB inh,Rango release inh,miR-21 FLuc
CC(C)(C)C(=O)NC1=NCCS1,3,3.1%,2%,0%
Cc1ccc(-n2c(C(C)C)nc3oc4ccccc4c(=O)c3c2=O)cc1,0,5.9%,7%,-41%
O=C(O)CCCN1C(=O)c2cccc3cccc(c23)C1=O,.,-1.1%,2%,-7%
COc1ccc(-n2c(C)cc(SC)c(C(C)=O)c2=S)cc1,-3,0.3%,-4%,-1%
O=C1NC(=Nc2ccccc2)c2c1cccc2[N+](=O)[O-],4,-4.6%,5%,-27%
O=C(CCCOc1ccc(Cl)cc1Cl)N/N=C\C1CCCCC1,-5,-2.0%,-12%,-5%
Cc1c(C(=O)NCc2ccccc2CN2CCCC2)oc2ccc(F)cc12,.,1.0%,-5%,.
CCN1CC(CN(C)Cc2nc(Cc3ccccc3)no2)CC1=O (stereo not drawn),0,5.8%,-6%,2%
